Screens (PubChem BioAssay)
rRNA inh HTS – inhibitors of bacterial rRNA selective over humanized ribosomes | E. coli WT GFP vs humanized-ribosome RFP mutants, fluorescence, 24 h; active compounds read low; DMSO median 0, no signal -100 | GFP signal change (wild-type ribosome), % (concentration not given with the values) | 1.6% of 350,000 active | AID 720706;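 active means significant combined selectivity score with lowered wild-type GFP, culture density cut under 30%, mutant RFP and density less affected; inactive means any of these conditions unmet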; further: one replicate is shown; some compounds called inactive have numbers as strong as hits
rRNA inh HTS OD600 – also measured in rRNA inh HTS; calls as there; OD600 change, %; measured here: OD600 growth;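 optical density of the mix in the first replicate; 0 = DMSO median and -100 = no signal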
rRNA inh HTS RFP – further read-out of rRNA inh HTS, marked with its call; RFP signal change, %; measured here: RFP humanized mutant strains;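 first replicate; 0 = DMSO median and -100 = no signal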
Starred values were filed as active, the others as inactive; & = joins results of further samples. Only part of the results is shown; the hit share may differ from the screen's.

Structure	rRNA inh HTS	rRNA inh HTS OD600	rRNA inh HTS RFP
CCC(=O)Nc1ccc2c(c1)OC[C@H](C)N(C(=O)CC)C[C@H](C)[C@@H](OC)CN(C)C2=O	2	3	0.9
C[C@@H]1CN([C@H](C)CO)C(=O)Cc2cc(NS(=O)(=O)c3cccs3)ccc2O[C@@H]1CN(C)C(=O)Nc1ccc(F)cc1	-2	-8	2.1
CC(C)(C)c1ccc(CC(=O)N2CCC2(C)C(=O)NS(=O)(=O)c2ccccc2C(F)(F)F)cc1 (stereo unspecified)	0	2	3.2
O=C(C[C@H]1C=C[C@H](NC(=O)Nc2ccc(C(F)(F)F)cc2)[C@H](CO)O1)NCCN1CCCC1	0	5	-1.0
Cc1noc(C)c1S(=O)(=O)Nc1ccc2c(c1)CC(=O)N([C@@H](C)CO)C[C@@H](C)[C@H](CN(C)Cc1ccc(-c3ccccc3)cc1)O2	5	2	8.8
CC(C)NC(=O)Nc1ccc2c(c1)C(=O)N([C@@H](C)CO)C[C@@H](C)[C@H](CN(C)C(=O)CCC(F)(F)F)OCCCC[C@H](C)O2	1	6	-2.7
C[C@H]1CN([C@@H](C)CO)C(=O)Cc2cc(NC(=O)C3CCCCC3)ccc2O[C@H]1CN(C)S(C)(=O)=O	2	6	1.9
CCOC(=O)C1=CC[C@@H](c2ccccc2)N(S(=O)(=O)c2ccc(C)cc2)[C@H]1c1ccccc1C	-9	14	4.3
Cc1ccc(S(=O)(=O)N(C)C[C@H]2Oc3ccc(NC(=O)Nc4ccc(F)cc4)cc3CC(=O)N([C@H](C)CO)C[C@H]2C)cc1	4	3	-1.3
COc1ccc(NC(=O)N[C@H]2CC[C@@H](CCn3cc(-c4ccccc4)nn3)O[C@@H]2CO)cc1	-3	-3	-2.6

Continued:
Structure	rRNA inh HTS	rRNA inh HTS OD600	rRNA inh HTS RFP
CO[C@@H]1CN(C)C(=O)c2cc(NC(=O)C3CCCCC3)ccc2OC[C@H](C)N(Cc2nccs2)C[C@H]1C	-3	-9	2.1
C[C@@H](NC(=O)C[C@H]1C=C[C@@H](NC(=O)Nc2ccc3c(c2)OCO3)[C@@H](CO)O1)c1ccccc1	0	3	0.3
COc1ccc(-c2cnc3c(c2)C(=O)N([C@@H](C)CO)C[C@H](C)[C@@H](CN(C)C)O3)cc1	5	9	-2.6
CCCC(=O)Nc1ccc2c(c1)OC[C@H](C)N(Cc1ccc(-c3ccccn3)cc1)C[C@@H](C)[C@@H](OC)CN(C)C2=O	-3	-2	4.6
C[C@@H]1CCCCO[C@H](CN(C)C(=O)CCCN(C)C)[C@H](C)CN([C@@H](C)CO)C(=O)c2cc(NC(=O)c3ccncc3)ccc2O1	-1	10	-2.5
COc1cccc(S(=O)(=O)N2[C@@H]3CNC[C@H]2C3c2ccc(/C=C/c3ccccc3)cc2)c1 (stereo partly specified)	-57&-2	-82&-19	-14&-2.5
O=C(Nc1cc(F)ccc1F)N1CCCCN2[C@H](CO)[C@@H](c3ccc(-c4cncnc4)cc3)[C@@H]2C1	-2	9	-2.5
C[C@@H]1CN([C@H](C)CO)C(=O)CCCn2cc(nn2)CO[C@H]1CN(C)Cc1ccc2cccnc2c1	-1	3	-2.1
O=C1CN(S(=O)(=O)Cc2ccccc2)C[C@@H]2[C@H](c3ccc(C#Cc4cccnc4)cc3)[C@H](CO)N12	1	-5	0.6
C[C@H]1CN([C@@H](C)CO)C(=O)Cc2cc(NC(=O)C3CC3)ccc2O[C@@H]1CN(C)Cc1ccc(-c2ccccc2)cc1	-11	-35	11

Following part:
Structure	rRNA inh HTS	rRNA inh HTS OD600	rRNA inh HTS RFP
C[C@H]1CN([C@@H](C)CO)C(=O)Cc2cc(NC(=O)NC3CCCCC3)ccc2O[C@H]1CN(C)C	-3	-6	-3.4
CCCNC(=O)Nc1ccc2c(c1)OC[C@@H](C)N(Cc1cccnc1)C[C@H](C)[C@H](OC)CN(C)C2=O	-4	1	1.0
C[C@@H]1CN([C@@H](C)CO)C(=O)Cc2cc(NC(=O)Nc3ccc4c(c3)OCO4)ccc2O[C@@H]1CN(C)Cc1ccc(Cl)c(Cl)c1	6	6	-0.6
N#C[C@@H]1[C@@H](c2ccc(-c3cccc(F)c3)cc2)[C@H](CO)N1C(=O)c1cccnc1	4	-21	0.2
COCC(=O)Nc1ccc2c(c1)C(=O)N(C)[C@H]1CC[C@H](CC(=O)NCc3cccc(F)c3)O[C@H]1CO2	3	-3	-0.1
CN(c1ccccc1)S(=O)(=O)c1cc(C(=O)NCc2ccco2)ccc1Cl	-45	-62	-4.1
C[C@H]1CN([C@@H](C)CO)C(=O)CCCn2nncc2CO[C@@H]1CN(C)C(=O)Nc1cccc2ccccc12	-7&-2	-14&10	9.0&1.3
O=C(Nc1ccccc1Cl)c1ccccc1CC(O)(c1ccccc1)c1ccccc1	-5	12	-3.3
CN1C(=O)c2cc(NC(=O)C3CCCC3)ccc2OC[C@H]2O[C@H](CC(=O)Nc3ccccc3)CC[C@H]21	-2	-7	-0.3
Cc1noc(C)c1NC(=O)N(C)C[C@H]1Oc2ccc(NC(=O)Cc3cn(C)c4ccccc34)cc2CC(=O)N([C@@H](C)CO)C[C@H]1C	1	0	1.1

Next part; the last 7 above are carried over.
Structure	rRNA inh HTS	rRNA inh HTS OD600	rRNA inh HTS RFP
N#C[C@@H]1[C@@H](c2ccc(-c3cccc(F)c3)cc2)[C@H](CO)N1C(=O)c1cccnc1	4	-21	0.2
COCC(=O)Nc1ccc2c(c1)C(=O)N(C)[C@H]1CC[C@H](CC(=O)NCc3cccc(F)c3)O[C@H]1CO2	3	-3	-0.1
CN(c1ccccc1)S(=O)(=O)c1cc(C(=O)NCc2ccco2)ccc1Cl	-45	-62	-4.1
C[C@H]1CN([C@@H](C)CO)C(=O)CCCn2nncc2CO[C@@H]1CN(C)C(=O)Nc1cccc2ccccc12	-7&-2	-14&10	9.0&1.3
O=C(Nc1ccccc1Cl)c1ccccc1CC(O)(c1ccccc1)c1ccccc1	-5	12	-3.3
CN1C(=O)c2cc(NC(=O)C3CCCC3)ccc2OC[C@H]2O[C@H](CC(=O)Nc3ccccc3)CC[C@H]21	-2	-7	-0.3
Cc1noc(C)c1NC(=O)N(C)C[C@H]1Oc2ccc(NC(=O)Cc3cn(C)c4ccccc34)cc2CC(=O)N([C@@H](C)CO)C[C@H]1C	1	0	1.1
CCCOc1ccc(F)cc1-c1cc(C(=O)NCCOC)[nH]n1	-5	-19	-1.0
Cc1ccc(-c2ccc(C3[C@H]4CNC[C@@H]3N4S(=O)(=O)c3ccccc3)cc2)cc1 (stereo partly specified)	-60&-17	-77&-51	-18&18
O=C(N[C@@H]1CC[C@H](CCn2cc(-c3ccccn3)nn2)O[C@H]1CO)c1ccncc1	-2	6	-2.9
CN(C)C(=O)C[C@@H]1C[C@@H]2c3cc(NC(=O)C4CCC4)ccc3O[C@@H]2[C@H](CO)O1	-1	3	-1.2
COc1cccc(S(=O)(=O)N(C)C[C@H]2Oc3ncc(Br)cc3C(=O)N([C@@H](C)CO)C[C@@H]2C)c1	0&-2	8&4	2.2&-0.8
C[C@@H]1CN([C@@H](C)CO)C(=O)CCCn2cc(nn2)CO[C@H]1CN(C)CC1CCCC1	2	-1	-2.6
C[C@H](CO)N1C[C@H](C)[C@H](CN(C)S(=O)(=O)c2cccs2)OCCCC[C@H](C)Oc2ccc(NC(=O)c3ccccc3)cc2C1=O	3	4	4.5
OC[C@@H]1[C@H](c2ccc(-c3ccccc3)cc2)[C@@H]2CN(CCC(F)(F)F)CCCCN12	-57	-80	-11
CNc1cncc(-c2cccc(O)c2)n1	6	13	2.1
Cc1noc(C)c1NC(=O)N(C)C[C@H]1OCCCC[C@@H](C)Oc2ccc(NS(=O)(=O)c3ccccc3)cc2C(=O)N([C@@H](C)CO)C[C@@H]1C	1	7	1.2

New compounds follow.
Structure	rRNA inh HTS	rRNA inh HTS OD600	rRNA inh HTS RFP
C[C@@H]1CCCCO[C@H](CN(C)Cc2ccncc2)[C@@H](C)CN([C@H](C)CO)C(=O)c2cc(NC(=O)Nc3ccccc3)ccc2O1	-4	-3	-0.2
O[C@@H]1C[C@H](c2ccc(Cl)cc2)N(Cc2cccs2)C[C@H]1n1cc(-c2ccc(F)cc2)nn1	4	-3	-0.4
C/C=C/c1cnc2c(c1)C(=O)N([C@@H](C)CO)C[C@@H](C)[C@H](CN(C)S(=O)(=O)c1ccc(C)cc1)O2	-5	-5	1.9
C[C@H](CO)N1C[C@H](C)[C@H](CN(C)Cc2ccccn2)Oc2cc(-c3ccncc3)ccc2S1(=O)=O	-3	1	-2.3
CSc1ccc(CN2CCC2(C)C(=O)Nc2ccc3c(c2)OCO3)cc1 (stereo unspecified)	-36	-56	-7.3
C[C@@H]1CN([C@@H](C)CO)C(=O)c2cc(NS(=O)(=O)c3cccs3)ccc2O[C@@H](C)CCCCO[C@@H]1CN(C)C(=O)NC1CCCCC1	-3	-2	-2.7
C[C@@H]1CN([C@@H](C)CO)C(=O)c2cc(NC(=O)C3CC3)ccc2O[C@H]1CN(C)S(=O)(=O)c1cn(C)cn1	1	4	-1.4
COc1cccc(S(=O)(=O)N[C@H]2C=C[C@@H](CC(=O)NC3Cc4ccccc4C3)O[C@H]2CO)c1	-8	-8	0.2
CC(=O)N(C)C[C@H]1Oc2cc(C#Cc3ccc(F)cc3)ccc2S(=O)(=O)N([C@H](C)CO)C[C@H]1C	-16	-28	2.4
COCCN1C[C@@H](CO)O[C@@H](n2cnc3c(NCCN(C)C)ncnc32)C1	1	5	-3.0

(further entries)
Structure	rRNA inh HTS	rRNA inh HTS OD600	rRNA inh HTS RFP
O=C(N[C@@H]1CC[C@@H](CC(=O)N2CCOCC2)O[C@@H]1CO)c1ccccn1	-1	3	-1.4
COCCN(Cc1ccc(C)cc1)C(=O)[C@H]1O[C@@H](n2ccc(N)nc2=O)[C@H](O)[C@@H]1O	5	2	-0.2
CC(C)C(=O)Nc1ccc2c(c1)C(=O)N(C)[C@H]1CC[C@@H](CC(=O)NCCc3ccccc3)O[C@H]1CO2	7	17	-2.3
C[C@@H]1CN([C@@H](C)CO)C(=O)c2cccc(NC(=O)Nc3ccc(F)cc3)c2O[C@H]1CN(C)CC1CC1	-1	1	-0.8
C[C@@H]1CCCCO[C@H](CN(C)C)[C@@H](C)CN([C@H](C)CO)C(=O)c2cc(NS(=O)(=O)c3cn(C)cn3)ccc2O1	0	-1	0.7
O=C(C[C@H]1CC[C@H]2[C@@H](COC[C@H](O)CN2C(=O)Nc2ccccc2)O1)NCCc1ccncc1	4	7	-0.7
COCC(=O)N1[C@H](C#N)[C@H](c2ccccc2-c2ccccc2)[C@@H]1CO	4	4	-6.7
CCNC(=O)C[C@@H]1CC[C@@H]2[C@@H](COc3ccc(NC(=O)c4cccc(OC)c4)cc3C(=O)N2C)O1	1	6	1.8
C[C@@H]1CN([C@H](C)CO)C(=O)c2cc(NC(=O)Cc3ccccc3)ccc2O[C@@H]1CN(C)C	-4	3	-4.6
CO[C@@H]1CN(C)C(=O)c2ccc(NC(=O)C3CCCC3)cc2OC[C@@H](C)N(CC2CC2)C[C@@H]1C	0	16	-4.1

New compounds follow.
Structure	rRNA inh HTS	rRNA inh HTS OD600	rRNA inh HTS RFP
COc1ccc(CN(C)C[C@@H]2OCCCC[C@@H](C)Oc3ccc(NS(=O)(=O)c4ccccc4)cc3C(=O)N([C@@H](C)CO)C[C@H]2C)cc1	1	5	1.4
N#C[C@H]1[C@H](c2ccccc2-c2cccc(F)c2)[C@H](CO)N1C(=O)C1CC1	-5	-8	2.7
C[C@@H]1CN([C@H](C)CO)C(=O)c2cccc(NC(=O)C3CCCCC3)c2O[C@H]1CN(C)CC1CCCCC1	2	8	-1.2
CO[C@H]1CN(C)C(=O)c2cc(NC(=O)C3CC3)ccc2OC[C@H](C)N(C(=O)NC(C)C)C[C@@H]1C	-1	0	-0.5
C[C@@H]1CN([C@H](C)CO)S(=O)(=O)c2ccc(-c3cccc(C(=O)N(C)C)c3)cc2O[C@H]1CN(C)C	0	-2	-2.8
Cc1ccc(S(=O)(=O)N(C)C[C@@H]2OCc3ccccc3-c3ccccc3C(=O)N([C@H](C)CO)C[C@H]2C)cc1	-2	-15	4.0
C[C@H]1CCCCO[C@@H](CN(C)Cc2ccncc2)[C@@H](C)CN([C@@H](C)CO)C(=O)c2cc(NS(=O)(=O)c3ccccc3)ccc2O1	-5	-6	1.1
CCCC(=O)Nc1ccc2c(c1)C(=O)N(C)C[C@@H](OC)[C@H](C)CN(Cc1ccccn1)[C@H](C)CO2	0	2	0.5
C[C@@H]1CCCCO[C@@H](CN(C)C(=O)Cc2ccccc2)[C@@H](C)CN([C@H](C)CO)C(=O)c2cc(NC(=O)c3ccccc3)ccc2O1	6	14	-0.2
Cc1c(C(=O)NCc2ccccc2C(F)(F)F)sc(=O)n1Cc1cccc(C(F)(F)F)c1	1	-14	-3.2

(listing goes on)
Structure	rRNA inh HTS	rRNA inh HTS OD600	rRNA inh HTS RFP
O=C(C1CCCCC1)N1CC2(C1)[C@@H](c1ccccc1)[C@@H](CO)N2Cc1nccs1	-4	-5	4.3
Cc1ccc(Cc2c(-c3cccc(Br)c3)nc3c4ccccc4ccn23)cc1	6	-4	21
C[C@@H]1CN([C@@H](C)CO)C(=O)c2cc(C#Cc3ccncc3)cnc2O[C@H]1CN(C)CC1CCOCC1	4	7	-2.7
C[C@@H]1CN([C@H](C)CO)C(=O)c2cccc(NC(=O)c3ccc(-c4nccs4)cc3)c2O[C@@H]1CN(C)Cc1ccc(C(F)(F)F)cc1	-2	-11	-0.6
C[C@@H]1CN([C@H](C)CO)C(=O)c2cc(NC(=O)NC3CCCCC3)ccc2O[C@@H](C)CCCCO[C@@H]1CN(C)CC1CCCCC1	4	-23	20
C[C@H](O)C#Cc1ccc2c(c1)O[C@H](CN(C)C(=O)Cc1ccccn1)[C@H](C)CN([C@@H](C)CO)S2(=O)=O	2	5	-1.9
